INS promoter inh – inhibitors of insulin promoter-driven GFP, primary screen, imaging, TRM-6 cells (human fetal islet line), eGFP reporter, cell count; reporter expression induced with tamoxifen; inhibition, % at 2 µM; 130,000 tested, 0.9% active; AID 1273, 2008;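 active means inhibition above the mean plus 3 SD, with well images judged a real hit on visual review, cut at about 60% in these data, passing the limit was not always enough; inconclusive means inhibition over the cutoff but images rejected on review; inactive means inhibition not above the cutoff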
PKD1 kinase inh – inhibitors of human PKD1 kinase, biochemical, fluorescence polarization | Serine/threonine-protein kinase D1 (Homo sapiens), Q15139 | PKD1 kinase fluorescence polarization assay | inhibition, %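 (about 10 µM by stock and volumes)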 | 200,000 tested, 0.056% active;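 active means inhibition of 50% or more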;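 further: controls were vehicle for no effect and a reference inhibitor for full effect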
Target sequence (Q15139 whole entry, looked up): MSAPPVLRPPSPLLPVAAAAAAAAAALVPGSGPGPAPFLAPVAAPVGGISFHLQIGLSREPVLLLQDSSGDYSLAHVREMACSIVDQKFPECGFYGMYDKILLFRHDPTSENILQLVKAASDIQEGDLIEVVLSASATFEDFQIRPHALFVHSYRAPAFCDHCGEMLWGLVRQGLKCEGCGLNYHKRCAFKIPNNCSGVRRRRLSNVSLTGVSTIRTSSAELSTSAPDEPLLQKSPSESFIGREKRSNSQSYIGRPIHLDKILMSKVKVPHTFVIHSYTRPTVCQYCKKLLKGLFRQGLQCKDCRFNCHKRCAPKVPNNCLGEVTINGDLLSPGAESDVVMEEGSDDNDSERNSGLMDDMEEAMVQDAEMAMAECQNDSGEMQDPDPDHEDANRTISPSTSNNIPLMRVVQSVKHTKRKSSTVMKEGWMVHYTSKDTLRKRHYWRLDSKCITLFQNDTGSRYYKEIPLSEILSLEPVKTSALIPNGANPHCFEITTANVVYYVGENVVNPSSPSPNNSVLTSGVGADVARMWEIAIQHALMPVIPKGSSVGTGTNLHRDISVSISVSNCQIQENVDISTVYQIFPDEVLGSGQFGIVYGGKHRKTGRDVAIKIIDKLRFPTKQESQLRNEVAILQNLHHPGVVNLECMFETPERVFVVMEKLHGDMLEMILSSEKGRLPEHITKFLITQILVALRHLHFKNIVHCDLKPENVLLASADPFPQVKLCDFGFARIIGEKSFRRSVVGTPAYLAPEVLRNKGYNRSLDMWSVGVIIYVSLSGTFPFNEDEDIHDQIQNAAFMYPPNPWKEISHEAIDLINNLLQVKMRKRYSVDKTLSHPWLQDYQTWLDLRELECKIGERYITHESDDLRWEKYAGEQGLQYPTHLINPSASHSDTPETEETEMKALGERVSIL
RGS16-Gao HTS – modulators of RGS16 binding to Galphao, primary screen, biochemical, human proteins, multiplexed bead flow cytometry. Regulator of G-protein signaling 16 (Homo sapiens) + Guanine nucleotide-binding protein …. bead-based flow cytometry RGS16-Galphao binding, fluorescence; actives lie on both sides. binding response (% of control), % at 10 µM. 220,000 tested, 0.38% active. AID 1441, 2008;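 active means below 25% or above 175%, edge rows of some plates excepted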;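 further: Galphao activated by GDP with aluminum fluoride before binding; 100% = wells without compound and 0% = beads without RGS; some results beyond the cut were filed as inactive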
GALR2 ag – GALR2 receptor agonists, primary screen, cell-based; GALR2-expressing cells, agonist activation read-out; 140,000 tested, 0.48% active; Galanin receptor type 2 (Homo sapiens), O43603; activation, %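 (tested at 5 µM)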; AID 803, 2007;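 active means above mean plus 3 SD of all compounds, about 5% in these data, not always enough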;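 further: 0% = vehicle buffer wells and 100% = reference agonist at full effect; tested in CHO reporter cells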
HSV augment – enhancers of HSV replication in host cells, fold increase, host cell viability | HSV replication augmentation in cells | 220,000 tested, 0.005% active | maximum fold increase | AID 1956, 2009;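 active means peak rise of 1.5-fold or more in the series; inconclusive means self-fluorescent or not available for retest; tested in PC3 cells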;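 further: first round at 10 µM; read as green reporter fluorescence; hits show the peak of a series up to 25 µM; 1 = signal of infected wells without compound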
INS promoter inh cell count – recorded beside INS promoter inh, whose call it bears; normalized cell count, %; measured here: cell count, toxicity; reference of the scale not given here;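 cells exposed to compound for 48 h; stained nuclei by imaging scaled within each plate; lower means fewer cells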
HSV augment primary fold – recorded beside HSV augment, whose call it bears; fold increase; compound at 10 µM; measured here: primary screen fold increase 10 uM; tested in PC3 cells;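 GFP signal in the first replicate; 1 = infected wells without compound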
The depositor's hits bear a star.

CCCCn1c(O)c(C(C)=NC(C)c2ccccc2)c(=O)[nH]c1=O (centres undefined) was read as PKD1 kinase inh 0, RGS16-Gao HTS 30, GALR2 ag 0.0, HSV augment inactive and HSV augment primary fold 0.95.
`COC(=O)C(O)(c1ccc(NC(=S)NC(=O)c2ccc(Cl)cc2Cl)cc1)C(F)(F)F` (centres undefined) gave INS promoter inh 3, PKD1 kinase inh -6, RGS16-Gao HTS 99, GALR2 ag 0.5, HSV augment inactive, INS promoter inh cell count 118 and HSV augment primary fold 1.
O=[N+]([O-])c1ccc(N2CCCCC2)c2ncccc12 was read as INS promoter inh 0, PKD1 kinase inh 1, RGS16-Gao HTS 90, HSV augment inactive, INS promoter inh cell count 69 and HSV augment primary fold 0.8.
For CCCNC1=C(C)C(=O)C2=C(C1=O)C(COC(N)=O)[C@]1(OC)C3NC3CN21 (some centres undefined) the results were RGS16-Gao HTS 99, HSV augment inactive and HSV augment primary fold 0.77.
`O=C1NC(=O)C(=Cc2ccc(N3CCOCC3)o2)C(=O)N1` gave PKD1 kinase inh 6 and RGS16-Gao HTS 95.
`CCCn1c(C)cc(C=O)c1C` gave PKD1 kinase inh -14, RGS16-Gao HTS 104, HSV augment inactive and HSV augment primary fold 0.95.
`C=CCC1(CN2CCCC2=O)C(=O)NC(=O)NC1=O` gave INS promoter inh -3, PKD1 kinase inh -6, RGS16-Gao HTS 126, GALR2 ag -1.3, HSV augment inactive, INS promoter inh cell count 71 and HSV augment primary fold 0.84.
`NC(=O)CN1C2CCC1CC(NC(=O)C1CC1)C2` (centres undefined) gave PKD1 kinase inh 0, RGS16-Gao HTS 100, GALR2 ag -2.1, HSV augment inactive and HSV augment primary fold 0.94.
Screening CCCCCCNC(=O)N[C@@H](Cc1ccc(O)cc1)C(=O)NCCC[C@H]1CN2C(=NC[C@H]2C)N1CC1CCC1 returned RGS16-Gao HTS 77, HSV augment inactive and HSV augment primary fold 1.2.
Screening CC(NC1=NCCS1)c1ccccc1 (centres undefined) returned INS promoter inh 27, PKD1 kinase inh -1, RGS16-Gao HTS 102, HSV augment inactive, INS promoter inh cell count 127 and HSV augment primary fold 0.84.
For CN1CCN(Cc2ccccc2C(F)(F)F)CC1 the results were INS promoter inh 11, PKD1 kinase inh -2, RGS16-Gao HTS 111, GALR2 ag -1.7, HSV augment inactive, INS promoter inh cell count 126 and HSV augment primary fold 0.91.
CCCCn1c(O)c(C=NC2CC3CCC2(C)C3(C)C)c(=O)[nH]c1=O (centres undefined) was read as INS promoter inh 64, PKD1 kinase inh -9, RGS16-Gao HTS 101, GALR2 ag 1.3, HSV augment inactive, INS promoter inh cell count 177 and HSV augment primary fold 1.
Screening COc1ccc(C2SCC(=O)Nc3c2c(C)nn3C2CCOC(C)(C)C2)cc1OC (centres undefined) returned INS promoter inh -45, PKD1 kinase inh 0, RGS16-Gao HTS 95, GALR2 ag -1.6, HSV augment inactive, INS promoter inh cell count 44 and HSV augment primary fold 0.93.
Screening Cn1c(O)c(/C=N/c2ncccn2)c(=O)n(C)c1=O returned INS promoter inh 19, PKD1 kinase inh -6, RGS16-Gao HTS 99, GALR2 ag -1.7, HSV augment inactive, INS promoter inh cell count 125 and HSV augment primary fold 0.87.
For CCC[N+]12CCC(CC1)C(C(O)(c1ccccc1)c1ccccc1)C2 (centres undefined) the results were RGS16-Gao HTS 95, HSV augment inactive and HSV augment primary fold 0.87.
Cn1c(O)c(/C=C2/C=CC=N2)c(=O)[nH]c1=O was read as RGS16-Gao HTS 100, HSV augment inactive and HSV augment primary fold 1.1.
Screening O=[N+]([O-])c1cc(F)c(N2CCCCC2)cc1Br returned RGS16-Gao HTS 97, HSV augment inactive and HSV augment primary fold 1.1.
Screening COc1ccccc1N1C(=O)NC(=O)/C(=C/c2ccc3c(c2)Cc2ccccc2-3)C1=O returned INS promoter inh 42, PKD1 kinase inh -5, RGS16-Gao HTS 106, GALR2 ag -0.3, HSV augment inactive, INS promoter inh cell count 54 and HSV augment primary fold 0.98.
Screening O=C(O)c1sc2cc(Cl)ccc2c1Cl returned RGS16-Gao HTS 104, HSV augment inactive and HSV augment primary fold 0.95.
COC(=O)C(O)(c1ccc(N(C)C)cc1)C(F)(F)F (centres undefined) was read as INS promoter inh -28, PKD1 kinase inh -4, RGS16-Gao HTS 101, HSV augment inactive, INS promoter inh cell count 151 and HSV augment primary fold 0.9.
COCCNC(=O)c1c(N)n(Cc2ccco2)c2nc3ccccc3nc12 was read as INS promoter inh -57, PKD1 kinase inh 12, RGS16-Gao HTS 98, GALR2 ag 3.6, HSV augment inconclusive and INS promoter inh cell count 147.
CC(=O)Nc1ccccc1C(=O)C(=O)Nc1cccc(C(=O)N2CCC3(CC2)OCCO3)c1 was read as INS promoter inh 25, PKD1 kinase inh -1, RGS16-Gao HTS 107, HSV augment inactive, INS promoter inh cell count 162 and HSV augment primary fold 1.
For O=C1NC(=O)N(c2ccc(F)cc2)C(=O)/C1=C/c1ccc2c(c1)CCCN2Cc1ccccc1 the results were PKD1 kinase inh 22, RGS16-Gao HTS 101, GALR2 ag -0.7 and HSV augment inconclusive.
COc1ccc(-n2c(-c3ccco3)nc3ccccc3c2=O)cc1 was read as PKD1 kinase inh 3, RGS16-Gao HTS 101, HSV augment inactive and HSV augment primary fold 1.
Screening CC12CC[C@H]3[C@@H](CCC4(O)C[C@H](O)CCC34/C=N/NC(=O)c3ccccc3F)C1(O)CCC2C1=CC(=O)OC1 (some centres undefined) returned RGS16-Gao HTS 98, HSV augment inactive and HSV augment primary fold 0.76.
For COC(=O)C1=COC(C)C2CN3CCC4(C(=O)Nc5ccccc54)C3CC12 (centres undefined) the results were RGS16-Gao HTS 98, HSV augment inactive and HSV augment primary fold 0.93.
`O=C(c1cc(=O)[nH]c2ccc(Br)cc12)N1CCC2(CC1)OCCO2` gave PKD1 kinase inh 12, RGS16-Gao HTS 107, GALR2 ag -0.1, HSV augment inactive and HSV augment primary fold 0.98.
Screening O=C1NC(=S)N(Cc2ccco2)C(=O)/C1=C\c1cccs1 returned INS promoter inh 0, PKD1 kinase inh -4, RGS16-Gao HTS 98, HSV augment inconclusive and INS promoter inh cell count 114.
For CC(C)Oc1ccc(Cc2c(O)[nH]c(=O)[nH]c2=O)cc1 the results were INS promoter inh 6, PKD1 kinase inh -7, RGS16-Gao HTS 117, GALR2 ag -2.2, HSV augment inactive, INS promoter inh cell count 98 and HSV augment primary fold 1.1.
Cc1c(NC(NC(=O)CF)C(Cl)(Cl)Cl)c(=O)n(-c2ccccc2)n1C (centres undefined) was read as PKD1 kinase inh 2, RGS16-Gao HTS 102, HSV augment inactive and HSV augment primary fold 0.92.

4 records picked at random from those above:
Cc1c(NC(NC(=O)CF)C(Cl)(Cl)Cl)c(=O)n(-c2ccccc2)n1C (centres undefined) was read as PKD1 kinase inh 2, RGS16-Gao HTS 102, HSV augment inactive and HSV augment primary fold 0.92.
CC(=O)Nc1ccccc1C(=O)C(=O)Nc1cccc(C(=O)N2CCC3(CC2)OCCO3)c1 was read as INS promoter inh 25, PKD1 kinase inh -1, RGS16-Gao HTS 107, HSV augment inactive, INS promoter inh cell count 162 and HSV augment primary fold 1.
For CC(C)Oc1ccc(Cc2c(O)[nH]c(=O)[nH]c2=O)cc1 the results were INS promoter inh 6, PKD1 kinase inh -7, RGS16-Gao HTS 117, GALR2 ag -2.2, HSV augment inactive, INS promoter inh cell count 98 and HSV augment primary fold 1.1.
For O=C1NC(=O)N(c2ccc(F)cc2)C(=O)/C1=C/c1ccc2c(c1)CCCN2Cc1ccccc1 the results were PKD1 kinase inh 22, RGS16-Gao HTS 101, GALR2 ag -0.7 and HSV augment inconclusive.

Next compounds
`CC1CCCN(c2ccc(C(=O)N3CCC4(CC3)OCCO4)cc2[N+](=O)[O-])C1` (centres undefined) gave PKD1 kinase inh -1, RGS16-Gao HTS 72, HSV augment inactive and HSV augment primary fold 0.94.
Screening Cc1cccc(C(O)(C(=O)NNC(=O)CN2CCN(C)CC2)c2cccc(C)c2)c1 returned PKD1 kinase inh -5, RGS16-Gao HTS 105, GALR2 ag -1.0, HSV augment inactive and HSV augment primary fold 1.1.
Screening CN1CC2([N+](=O)[O-])CC=C(Cl)C([N+](=O)[O-])(C1)C2 (centres undefined) returned INS promoter inh -42, PKD1 kinase inh -2, RGS16-Gao HTS 106, HSV augment inactive, INS promoter inh cell count 105 and HSV augment primary fold 1.1.
For Clc1cccc(C2NCc3ccccc3-n3cccc32)c1 (centres undefined) the results were RGS16-Gao HTS 104, HSV augment inactive and HSV augment primary fold 1.
Screening CN1CCN(c2cccc3c2C(=O)c2ccccc2C3=O)CC1 returned INS promoter inh 14, PKD1 kinase inh 101*, RGS16-Gao HTS 117, GALR2 ag 0.4, HSV augment inactive, INS promoter inh cell count 57 and HSV augment primary fold 0.75.
CN1C(=O)/C(=C\N2CCc3ccccc32)C(=O)NC1=S was read as INS promoter inh -12, PKD1 kinase inh -13, RGS16-Gao HTS 84, GALR2 ag 0.1, HSV augment inactive, INS promoter inh cell count 122 and HSV augment primary fold 1.3.
COC(=O)c1ccc(COc2cc(C)cc3oc(=O)c4c(c23)CCCC4)o1 was read as INS promoter inh -50, PKD1 kinase inh 2, RGS16-Gao HTS 108, GALR2 ag -0.7, HSV augment inactive, INS promoter inh cell count 158 and HSV augment primary fold 0.86.
For O=C1CC(c2ccccc2)CC(O)=C1C=NCCN1CCN(C(=O)Cc2ccccc2)CC1 (centres undefined) the results were INS promoter inh -33, PKD1 kinase inh 0, RGS16-Gao HTS 105, GALR2 ag -0.9, HSV augment inactive, INS promoter inh cell count 83 and HSV augment primary fold 1.1.
Cc1ccccc1-n1c(-c2ccc([N+](=O)[O-])cc2)nc2ccccc2c1=O was read as INS promoter inh -57, PKD1 kinase inh 8, RGS16-Gao HTS 99, GALR2 ag -0.5, HSV augment inactive, INS promoter inh cell count 109 and HSV augment primary fold 1.
CN1C(=O)C(Cc2cccs2)C(=O)N(C)C1=O was read as PKD1 kinase inh -6, RGS16-Gao HTS 101, GALR2 ag -4.4, HSV augment inactive and HSV augment primary fold 0.79.
For COc1cc(/C=N/NP(=S)(c2ccccc2)c2ccccc2)ccc1O the results were INS promoter inh -37, PKD1 kinase inh 3, RGS16-Gao HTS 85, GALR2 ag 0.7, HSV augment inactive, INS promoter inh cell count 118 and HSV augment primary fold 1.
O=C(Nc1ccccc1F)OC1CN2CCC1CC2 (centres undefined) was read as RGS16-Gao HTS 102, HSV augment inactive and HSV augment primary fold 1.1.
Screening CCc1cc2c(s1)N(CC(=O)OC)C(=O)CN=C2c1ccccc1OC returned PKD1 kinase inh 1, RGS16-Gao HTS 103, HSV augment inactive and HSV augment primary fold 1.1.
Screening C[C@@H]1O[C@@H](O[C@H]2C[C@@H](O)[C@]3(CO)[C@H]4[C@H](O)C[C@]5(C)[C@@H](C6COC(=O)C6)CC[C@]5(O)[C@@H]4CC[C@]3(O)C2)[C@H](O)[C@H](O)[C@H]1O (some centres undefined) returned INS promoter inh 0, PKD1 kinase inh -5, RGS16-Gao HTS 49, GALR2 ag 0.1, HSV augment inactive, INS promoter inh cell count 52 and HSV augment primary fold 0.41.
CCCC(C)n1[nH]c(=O)c2c1NC(=O)CSC2c1ccc(OC)cc1 (centres undefined) was read as INS promoter inh 50, PKD1 kinase inh -10, RGS16-Gao HTS 115, GALR2 ag -2.3, HSV augment inactive, INS promoter inh cell count 146 and HSV augment primary fold 0.86.
CC(NCc1ccc(Cl)cc1)C(O)c1ccccc1 (centres undefined) was read as INS promoter inh 29, PKD1 kinase inh -2, RGS16-Gao HTS 101, GALR2 ag -1.3, HSV augment inactive, INS promoter inh cell count 100 and HSV augment primary fold 0.91.
COC(=O)c1ccc(-n2c(C)nc3ccccc3c2=O)cc1 was read as INS promoter inh -7, PKD1 kinase inh -4, RGS16-Gao HTS 106, GALR2 ag -1.5, HSV augment inactive, INS promoter inh cell count 106 and HSV augment primary fold 0.8.
Cc1cccc(-n2c(O)c(C=NC34CN5CN(CN(C5)C3)C4)c(=O)[nH]c2=O)c1 was read as INS promoter inh 27, PKD1 kinase inh -1, RGS16-Gao HTS 104, HSV augment inactive, INS promoter inh cell count 78 and HSV augment primary fold 0.98.
For O=C1NC(=O)C2(Cc3ccccc3N3CCCC32)C(=O)N1c1cccc(Cl)c1 (centres undefined) the results were INS promoter inh -9, PKD1 kinase inh -12, RGS16-Gao HTS 100, GALR2 ag -0.4, HSV augment inactive, INS promoter inh cell count 104 and HSV augment primary fold 0.96.

High-throughput results: PubChem, several laboratories

These rows are one share of the data (hit frequency here may not be typical).
